Screens (PubChem)
AID504770: growth inhibition of E. coli YBA685, primary screen, V. cholerae RctB inhibitors | E. coli YBA685 rctB-dependent plasmid, OD600 growth, 3 h; stronger effect = lower value | z-score (concentration not given with the values) | hit rate 0.27% among 130,000;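 active means z-score under -2 on both plates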;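 further: wells of about 30 µL received 100 nL stock; score is relative to mean and SD of the test wells; the first replicate is given; strong numbers were not always called active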
Ba CapD inh: Bacillus anthracis CapD inhibitors, primary screen, biochemical, fluorescence intensity. CapD gamma-glutamyltranspeptidase (Bacillus anthracis Ames Ancestor). purified CapD enzyme, fluorescence intensity read-out; stronger effect = lower value; some hits fall short of the stated cut. z-score (test concentration not listed). hit rate 0.23% among 140,000;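 active means z-score under -4 in either of two replicates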;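 further: stock transfer was 100 nL into about 40 µL; score is relative to mean and spread of the plate; one replicate is shown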
An asterisk follows results filed as active; / = no result given.

canonical_smiles	AID504770	Ba CapD inh
COc1ccc(S(=O)(=O)N2CCC(C(=O)N3CCCC3)CC2)cc1OC	-0.05	/
CC1C(=O)N(Cc2ccccc2Cl)c2ccccc2N1C(=O)c1ccccc1 (stereo not given)	/	-0.6
CCN(C(=O)CSc1nc2nc(C)cc(C)n2n1)C1CCS(=O)(=O)C1 (stereo not given)	0.4	/
CCN1C(=O)c2cccc3c(NC(=O)c4ccco4)ccc1c23	-0.45	-0.38
CCC(C)(C)NC(=O)c1ccc2ncsc2c1	-0.45	/
Cc1ccc(C(C2=C(O)CC(C)(C)CC2=O)C2C(=O)CC(C)(C)CC2=O)cc1 (stereo not given)	/	-0.4
Cc1cc(S(=O)(=O)N2CCCN(Cc3ccc(Cl)cc3Cl)CC2)c(C)cc1Cl	/	0.375
C=CCn1c(N)cc(=O)nc1SCC(=O)Nc1ccccc1	-0.55	-0.22
O=C(Cc1ccc(S(=O)(=O)N2CCOCC2)s1)OCc1nc2ccccc2s1	-0.5	/
O=C(CSC1N=C2C=CC=CC2O1)c1ccccc1 (stereo not given)	0	0.17

(further entries)
canonical_smiles	AID504770	Ba CapD inh
COc1cc(/C=c2/sc3nc4cc(C)c(C)cc4n3c2=O)ccc1OCc1ccccc1	/	0.74
CC(N)C(=O)N1CCCCC1 (stereo not given)	-0.4	/
CC(c1ccc(F)cc1)N1CN(Cc2ccccc2)c2nc3ccccc3n2C1 (stereo not given)	-0.15	/
Cc1ccc(C(=O)NC2CC(C)(C)NC(C)(C)C2)c(C)c1	-0.4	-0.045
O=C1Nc2ccccc2C(=O)C1(N1CCOCC1)N1CCOCC1	-0.7	0.09
CCc1nc2cccnc2n1-c1ccc(CC(=O)N2CCOCC2)cc1	-0.6	0.625
Cc1ccccc1N1CCN(C(=O)OCCCc2ccccc2)CC1	/	-0.055
CCN(CC)c1nc(-c2ccccc2)ncc1S(=O)(=O)c1ccc(C)cc1	/	-0.36
Cc1ccc(S(=O)(=O)N(CC(O)Cn2c3ccccc3c3ccccc32)c2ccccc2I)cc1 (stereo not given)	/	-0.05
O=C1CC(CSc2ccccn2)=NN1	/	-0.82

Other structures.
canonical_smiles	AID504770	Ba CapD inh
Cc1ccc(N2C(=O)CSC2c2ccc([N+](=O)[O-])cc2)c(Br)c1 (stereo not given)	/	-0.125
O=C(N/N=C/c1ccc(Cl)cc1Cl)C1C(c2ccccc2)C(C(=O)N2CCOCC2)C1c1ccccc1 (stereo not given)	/	-0.095
O=C(Cc1cccc2ccccc12)NCC(=O)Nc1ccc(N2CCOCC2)cc1	0.25	/
Cc1cc(Oc2ccccc2)ccc1[N+](=O)[O-]	/	-0.085
Clc1ccc2nsnc2c1	/	-0.34
O=C(O)c1cccnc1SCc1cc(=O)n2cc(Br)ccc2n1	0.25	/
COc1ccc(C=Nc2ccc(C34CC5CC(CC(C5)C3)C4)cc2)c(OC)c1OC	0.75	78.4
O=C(CCS(=O)(=O)c1cccc2nsnc12)NC(c1ccccc1)c1ccccc1	/	-0.085
Cc1nnc(N2C(=O)C(=O)/C(=C(/O)c3ccccc3)C2c2ccccc2)s1 (stereo not given)	/	-0.295
FC(F)(F)c1cc(Cl)c2nc(-c3ccccc3)c(-c3ccccc3)nc2c1	/	-0.325

Full records, looked up by structure. Order of screens: AID504770, Ba CapD inh
Entry for `Cc1ccc(C(=O)NC2CC(C)(C)NC(C)(C)C2)c(C)c1` → -0.4, -0.045
Entry for `Cc1ccc(N2C(=O)CSC2c2ccc([N+](=O)[O-])cc2)c(Br)c1` (stereo not given) → /, -0.125

Next part:
canonical_smiles	AID504770	Ba CapD inh
C=CCNc1scc(-c2ccccc2)[n+]1CC=C	-0.45	-0.305
O=c1[nH]c(=S)[nH]cc1S(=O)(=O)c1ccc(F)cc1	0.75	-0.135
CCOC(=O)c1c(NC(=O)c2cccc(Cl)c2)sc(C(=O)Nc2ccccc2C(F)(F)F)c1C	/	0.185
N#Cc1ccc(OCc2ncc(C(F)(F)F)cc2Cl)cc1	0.1	0.785
Cc1ccc(-c2cc3nc4c(c(C(F)(F)F)n3n2)CCC4)cc1	0.35	0.28
Cc1ccccc1N1CCN(C(=O)OCCC2CCCCC2)CC1	/	-1.32
Cc1c(Br)c(C(F)(F)F)nn1CC(=O)Nn1c(-c2cccc(Cl)c2)nc2ccccc2c1=O	/	-0.23
Cc1cc(C)cc(C(=O)N2CC(C)CC(C)C2)c1 (stereo not given)	-1.9	0.335
COc1ccc(S(=O)(=O)n2nc(OC(=O)C(C)(C)C)cc2N)cc1	0.2	0.175
CN(c1ccc(Br)cc1)S(=O)(=O)c1cnc[nH]1	1.45	0.005

A draw from above in order of count of non-hydrogen atoms, lowest first:
canonical_smiles	AID504770	Ba CapD inh
Cc1cc(C)cc(C(=O)N2CC(C)CC(C)C2)c1 (stereo not given)	-1.9	0.335
Cc1ccc(-c2cc3nc4c(c(C(F)(F)F)n3n2)CCC4)cc1	0.35	0.28
Cc1c(Br)c(C(F)(F)F)nn1CC(=O)Nn1c(-c2cccc(Cl)c2)nc2ccccc2c1=O	/	-0.23

The list goes on:
canonical_smiles	AID504770	Ba CapD inh
COc1ccc(C2Nc3ccccc3-c3nnc(SC)nc3O2)cc1 (stereo not given)	0.5	0.095
Cc1cc(C(=O)CSc2nccn2-c2cccc(F)c2)c(C)n1-c1ncn[nH]1	-1.15	/
CCc1ccc(-n2c(N)c(C(N)=O)sc2=S)cc1	/	-1.62
CC1=Nc2ccccc2N=C(NC(=O)CN2CCCCCC2)C1c1ccccc1 (stereo not given)	-0.3	-0.64
O=C(N[C@@H](Cc1ccccc1)C(=O)NC1CCCCC1)c1ccco1	0	/
CN(C)N1C(=O)CC(NCc2ccccc2)C1=O (stereo not given)	-1.3	/
O=c1[nH]c2ccccc2c(=O)n1CCc1ccccc1	0.35	2.04
CCC1CCCCN1C(=O)COC(=O)c1cccnc1Cl (stereo not given)	0.2	0
Cc1nnc2n1N=C(c1ccc(Cl)cc1)CS2	/	-0.3
COc1ccccc1NC(=O)c1ccc(C)cc1	2.05	-0.565

New compounds follow
canonical_smiles	AID504770	Ba CapD inh
Cn1c(=O)c2c(ncn2CC(O)CN2C(=O)c3ccccc3S2(=O)=O)n(C)c1=O (stereo not given)	-0.15	-0.12
COCCN1Cc2cccc(C(=O)NC(C)C34CC5CC(CC(C5)C3)C4)c2C1=O (stereo not given)	0	-0.205
Cc1[nH]n(-c2ccccc2)c(=O)c1C(=O)c1ccc(Cl)cc1	/	-1.03
N=C1SC2CS(=O)(=O)CC2N1c1ccccc1 (stereo not given)	-0.4	0.115
Cc1ccc(C(=O)OCC(=O)N(C)c2ccccc2)c(O)c1	0.75	0.705
Cc1ccc2c(c1)C(O)(C1COC(C)(C)CC1=O)C(=O)N2C (stereo not given)	/	-0.215
O=C(Nc1nc2ccc(F)cc2s1)C1CCCC1	-0.4	/
CN1CCN(C(=O)CSCc2ccc(Br)cc2)CC1	0.05	-0.67
CC(C)Cn1c(SCC(=O)c2ccc[nH]2)nc2ccccc2c1=O	0.05	/
CCSc1nnc(CCNC(=O)C2CCCC2)n1C	-0.45	/

(listing goes on)
canonical_smiles	AID504770	Ba CapD inh
COc1ccccc1CNC(=O)c1ccc2c(c1)N(Cc1ccc(F)cc1Cl)C(=O)CS2	/	0.52
CC(C)N(C(=O)COn1nnc2ccccc21)c1ccccc1	-0.85	/
CN(C)c1nc(NCCOC23CC4CC(CC(C4)C2)C3)nc(OCC(F)(F)F)n1	/	0.105
O=S(=O)(Cc1cccc(C(F)(F)F)c1)NCc1csc(-c2cccs2)n1	-0.6	34.5
O=C(NCc1ccc(F)cc1)c1cc2c(s1)CN(C1CCCCCC1)C2	-0.7	/
CCc1ccc(S(=O)(=O)Nc2ccc3oc4c(c3c2)CC(C(C)(C)C)CC4)cc1 (stereo not given)	/	-0.08
CCOc1ccc(CN(C)CC(O)COCC2CCCO2)cc1 (stereo not given)	-0.05	/
CCOC(=O)c1c(NC(=O)c2ccc(Cl)c([N+](=O)[O-])c2)sc(C(=O)Nc2ccccc2C)c1C	/	0.395
CCCCN1C(=O)C(O)(CC(=O)c2ccc3c(c2)OCCO3)c2ccccc21 (stereo not given)	0.45	0.18
Cc1ccc(NC(=O)c2ccc(-c3ccccc3)cc2)nc1	-0.1	47.1

Following part:
canonical_smiles	AID504770	Ba CapD inh
CSc1sc(C)cc1C1C(C(=O)Nc2ccc(Br)cn2)=C(C)NC2=C1C(=O)CCC2 (stereo not given)	/	1.55
CC(O)Cn1c(=O)c2c(nc(Br)n2Cc2ccccc2)n(C)c1=O (stereo not given)	/	0.04
COc1ccc(NC2c3ccccc3C(=O)N2c2ccc(Cl)cc2)cc1 (stereo not given)	-0.65	30.5
Cc1ccnc(SC(C)C(=O)O)n1 (stereo not given)	0.55	/
Cc1cc2cc(CNC(=O)C3CC3)ccc2n1C	-0.2	0.46
CN(C)/N=C/c1ccc([N+](=O)[O-])o1	/	-4.4*
CN(c1ccc(Cl)cc1)c1nc(O)c(C2=c3cc(F)ccc3=NC2=O)s1	2.1	-0.35
CCCOc1ccc(Cl)cc1C(=O)O	1.7	-0.655
O=C(NCc1cccs1)c1ccc2c(c1)N(Cc1ccccc1)C(=O)CS2	-0.2	0.23
Cc1nnc(SCC(=O)NC(=O)C2COc3ccccc3O2)n1Cc1ccccc1 (stereo not given)	0.05	/

More entries
canonical_smiles	AID504770	Ba CapD inh
CC(=O)N(CCc1ccc(C)[n+]([O-])c1)c1ccccc1	-0.3	-0.1
CCOc1ccccc1-c1nnc(CS(=O)(=O)c2ccccc2)o1	-0.35	0.865
C=CCN1C(=O)c2ccc(C(=O)OCc3cn4ccccc4n3)cc2C1=O	0.25	/
CCOC(=O)c1[nH]c2ccc(F)cc2c1NC(=O)CNc1nncs1	/	19
CCOc1cc(C2C(C(=O)OC)=CN(Cc3ccc(Cl)cc3)C=C2C(=O)OC)cc([N+](=O)[O-])c1O	/	-0.45
CCOc1cc(C2Nc3ccc4ncccc4c3C3=C2C(=O)CCC3)ccc1O (stereo not given)	0.45	0.765
CCCN(CC(=O)Nc1ccccc1C)C(=S)NC	0.75	/
Cc1sc(NC(=O)c2ccccc2F)c(C(=O)O)c1C	0.1	/
O=C(CSc1nc2sc3c(c2c(=O)[nH]1)CCCC3)Nc1nc2c(s1)CCCC2	-0.25	/
Cc1ccc2ncc(C(=O)NC(C)(C)C)c(=O)n2c1	-0.05	102

Gathered by group: those above containing a COOH group.
canonical_smiles	AID504770	Ba CapD inh
O=C(O)c1cccnc1SCc1cc(=O)n2cc(Br)ccc2n1	0.25	/
Cc1ccnc(SC(C)C(=O)O)n1 (stereo not given)	0.55	/
CCCOc1ccc(Cl)cc1C(=O)O	1.7	-0.655
Cc1sc(NC(=O)c2ccccc2F)c(C(=O)O)c1C	0.1	/

Next structures
canonical_smiles	AID504770	Ba CapD inh
c1ccc2c(c1)ncn2CCN1CCCCC1	-0.5	-0.195
O=C(Cc1ccc(Br)cc1)Nc1ccc(-c2nnc(-c3ccccc3)o2)cc1	-0.25	11.7
COC(=O)c1ccc(COc2cccc3c2CCN(Cc2ccccc2)C3=O)o1	-0.15	0.525
CC(C)Cn1c(N)c(C(=O)NCc2cccs2)c2nc3ccccc3nc21	-0.85	/
COC(=O)C(C1CCS(=O)(=O)C1)S(=O)(=O)c1ccccc1 (stereo not given)	-0.6	0.05
CCOC(=O)c1c(CN2CCN(C)CC2)n(Cc2ccccc2)c2cc(Br)c(O)cc12	/	-0.15
Cc1cccc(C)c1OCC(=O)N(CC(N)=O)C(C)C	0.2	/
CC1CCCCN1C(=O)C1CCN(S(=O)(=O)c2ccc(-n3cnnn3)cc2)CC1 (stereo not given)	-0.5	/
O=C(CN(C(=O)c1cc2c(s1)CCC2)C1CCCC1)NCc1cccs1	-1.1	/
CCn1c(=O)c2cc(C(=O)NCCCN3CCCCCC3)sc2c2ccccc21	1.2	0.12

(list continues)
canonical_smiles	AID504770	Ba CapD inh
Cc1cc(C(=O)Nc2sc(C)c(C)c2C(=O)NCc2cccnc2)no1	-0.5	2.92
O=C1CCCCCN1C(=O)c1ccc(Cl)cc1	0.75	-0.44
N#Cc1sc2sc(C#N)c(-c3cccs3)c2c1N	1.5	-0.025
COc1cc(/C=c2\sc3nc4ccccc4n3c2=O)ccc1OCCOc1ccc(C)c(C)c1	/	0.55
O=C(NCC1CCCO1)c1cccc(Nc2nc3ccccc3n3cnnc23)c1 (stereo not given)	0.1	-0.4
CC1SC(C)C(=O)N(CC(=O)Nc2ccccc2F)C1=O (stereo not given)	2	/
COCCN1C(=O)c2ccccc2C(C(=O)N2CCCC2)C1c1cn(C)c2ccccc12 (stereo not given)	-1.1	0.03
COc1cc(CCC(=O)NC2CCCCC2)cc(OC)c1OC	-0.15	-0.12
CN1c2ccccc2Oc2nnc(N3CCN(C(=O)c4ccco4)CC3)cc21	2.3	32.5
Cc1ccc(NC(=O)c2ccc(S(=O)(=O)N3CC(C)CC(C)C3)cc2)c(C(=O)c2ccccc2)c1 (stereo not given)	2.2	-0.76

(listing goes on)
canonical_smiles	AID504770	Ba CapD inh
COC(=O)C1=C(C)OC(N)=C(C#N)C1c1ccc(C(C)C)cc1 (stereo not given)	/	14.7
COC(=O)c1cc(NC(=O)NCc2noc3ccccc23)cc(C(=O)OC)c1	-0.4	4.83
Cc1cc2c(cc1S(=O)(=O)NCCC1=CCCCC1)n(C)c(=O)c(=O)n2C	-1.5	1.6
O=C(O)c1cc2ccccc2n1-c1ccccc1	-0.85	0.285

Rows are unselected; overall some 0.41% were active at least once.
